Cruzain noTriton = qHTS Assay for Promiscuous and Specific Inhibitors of Cruzain (without detergent); purified cruzain, Z-FR-AMC fluorescence, no detergent; 200,000 compounds, 2.3% hits; Potency, µM, inactives show max response, negative = inhibition, hits mostly inhibitors; Cruzipain (Trypanosoma cruzi), P25779; active = well fitted curve in the direction sought with a large enough effect; inconclusive = small, poorly fitted or top-dose-only effect, or another doubt; inactive = no such curve, though single readings can be large; an effect the other way counts as inactive or inconclusive;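 also: plate controls were enzyme without inhibitor for no effect and buffer without enzyme for full effect; nearly all actives have a fitted effect of over 40% in size; top concentration of the series not given in the record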
Target sequence (P25779 123-467 limits assumed): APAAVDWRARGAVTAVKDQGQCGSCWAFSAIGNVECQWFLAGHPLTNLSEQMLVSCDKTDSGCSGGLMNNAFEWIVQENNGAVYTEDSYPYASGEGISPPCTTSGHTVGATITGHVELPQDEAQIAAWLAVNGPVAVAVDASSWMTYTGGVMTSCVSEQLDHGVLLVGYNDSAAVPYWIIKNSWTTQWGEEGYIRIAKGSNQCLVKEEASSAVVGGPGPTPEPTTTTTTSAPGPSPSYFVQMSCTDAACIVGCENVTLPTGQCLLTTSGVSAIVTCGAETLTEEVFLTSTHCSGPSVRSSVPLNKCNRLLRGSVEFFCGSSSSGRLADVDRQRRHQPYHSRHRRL
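Detergent-free condition (0.00005% Triton X-100) in acetate buffer pH 5.5 with DTT. 1.5 nM enzyme and compound were pre-mixed 15 min, then 2 uM Z-FR-AMC substrate added; reaction progress from fluorescence change between first and third reads (60 s).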
NS1 inh = qHTS Assay for Inhibitors of Influenza NS1 Protein Function | S. cerevisiae slowed by influenza A NS1, growth recovery by OD600 | Potency, µM (series often up to 46.1 µM), for inactives: at the highest dose activity, positive = more growth | 270,000 compounds, 0.4% hits; also: actives are rising curves; nearly all actives have a fitted effect of over 50% in size
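In this qHTS, NS1 from influenza A is expressed in budding yeast, where it slows growth. Cells are switched from glucose to 2% galactose medium (pH 6.0, -URA), treated with compound, and growth recovery is read at OD600.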
Cruzain inh Det = qHTS Assay for Promiscuous and Specific Inhibitors of Cruzain (with detergent) | Potency, µM, for inactives: max response, negative = inhibition, usual class: inhibitors | 200,000 compounds, 0.43% hits | purified cruzain, Z-FR-AMC fluorescence, 0.01% Triton; active = well fitted curve in the direction sought with a large enough effect; inconclusive = small, poorly fitted or top-dose-only effect, or another doubt; inactive = no such curve, though single readings can be large; an effect the other way counts as inactive or inconclusive;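 also: plate controls were neutral wells for no effect and buffer without enzyme for full effect; nearly all actives have a fitted effect of over 40% in size; top concentration of the series not given in the record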
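Detergent-containing run (0.01% Triton X-100) in acetate buffer pH 5.5 with 5 mM DTT: enzyme at 1.5 nM final, 15 min compound preincubation at room temperature, then 2 uM Z-FR-AMC substrate. Activity taken as 60 s fluorescence increase at 360/450 nm.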
LASV entry inh = qHTS for Inhibitors of binding or entry into cells for Lassa Virus; Lassa virus pseudotype entry inhibition, cell reporter; control for the full effect not named in the record; Potency, µM (doses to about 37.9 µM), inactives show at the highest dose activity change, negative = inhibition, actives largely listed as inhibitors; 300,000 compounds, 1.2% hits; AID 540256, 2011; active means well fitted inhibition curve with a large enough effect; inconclusive means small, poorly fitted or top-dose-only effect, or effect the other way; inactive means flat fitted curve, though single readings scatter; tested in HEK293 cells; also: % is scaled to controls: 0 for no effect and ±100 for the full control effect; nearly all actives have a fitted effect of over 50% in size; luciferase read-out
SARS PLP yeast = qHTS of Yeast-based Assay for SARS-CoV PLP. S. cerevisiae expressing SARS-CoV PLpro, growth rescue; control for the full effect not named in the record. Potency, µM (titrated, usually from 32.9 µM), for the others: top-dose activity, positive = growth rescue. 330,000 compounds, 0.19% hits; also: 0% is about no effect; nearly all actives have a fitted effect of over 55% in size; growth read by luminescence after 48 h
Marburg entry inh = qHTS for inhibitors of binding or entry into cells for Marburg Virus; Marburg virus pseudotyped entry inhibition, cell reporter; control for the full effect not named in the record; about a third of the inactives were read at about 46 µM; Potency, µM (titrated, usually from 37.8 µM), for the others: at the highest dose activity change, negative = inhibition, most hits filed as inhibitors; 300,000 compounds, 1.8% hits; AID 540276, 2011; active = well fitted inhibition curve with a large enough effect; inconclusive = small, poorly fitted or top-dose-only effect, or effect the other way; inactive = flat fitted curve, though single readings scatter; tested in HEK293 cells; about a fifth of its hits are not listed in these tables; also: % is scaled to controls: 0 for no effect and ±100 for the full control effect; luciferase read-out
RE007 growth inh = qHTS Assay for Inhibitors of the HIV-1 protein Vpr; 360,000 compounds, 0.21% hits; S. pombe RE007 Vpr strain, BacTiter-Glo ATP luminescence, 24 h; control for the full effect not named in the record; Potency, µM (titrated, usually from 92.2 µM), without a hit: at the top dose activity change, negative = less growth; AID 651644, 2012; active = well fitted falling curve with a large enough effect; inconclusive = small, poorly fitted or top-dose-only effect; inactive = no such curve, though single readings can be large or run the other way;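 also: % is scaled to controls: 0 for no effect and ±100 for the full control effect; nearly all actives have a fitted effect of over 50% in size; the assay follows cell death caused by Vpr and the record does not say whether a fall means rescue or toxicity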
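Fission yeast strain RE007, carrying one chromosomally integrated HIV-1 vpr copy, was seeded at OD 0.01 in PMG+AL medium with 23 nL pinned compound. After 24 h at 30 °C and 99% humidity, viability was read by BacTiter-Glo luminescence.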
StopGo reporter = High Throughput Screening for Foot and Mouth Disease Virus Antivirals | human cells with a luciferase reporter of 2A StopGo recoding; control for the full effect not named in the record | Potency, µM (titrated, usually from 57.9 µM), for inactives: at the highest dose signal change, negative = less light | 410,000 compounds, 1.2% hits; active = well fitted falling curve with a large enough effect; inconclusive = small, poorly fitted or top-dose-only effect; inactive = no such curve, though single readings can be large or run the other way; tested in HEK293T cells; also: % is scaled to controls: 0 for no effect and ±100 for the full control effect; nearly all actives have a fitted effect of over 45% in size; luciferase light after 4 h
* marks the source's active call; other numbers are inactive results; u = inconclusive; x = no result given; & = joins results of further samples; [ ] = another dose, or the depositor's remark. Unless noted, calls follow the shape of the dose curve; as a rule, active means well fitted rising curve with a large enough effect; inconclusive means small, poorly fitted or top-dose-only effect; inactive means no such curve, though single readings can be large or run the other way. Potency is read from the fitted curve at half-maximal effect.

Every second line gives: Cruzain noTriton	NS1 inh	Cruzain inh Det	LASV entry inh	SARS PLP yeast	Marburg entry inh	RE007 growth inh	StopGo reporter
(1) CC[C@]12c3[nH]c4cc(CCC(=O)N(C)C)ccc4c3CCN1C(=O)[C@@H](CC(=O)NCCc1ccccn1)C[C@@H]2C(=O)N1CCN(C(=O)c2ccco2)CC1
 : x	x	x	x	-1.6%	-2.9%	-7.5%	15.9%
(2) CC(Sc1nnc(NC2CCCCC2)s1)C(=O)Nc1ccc2c(c1)C(=O)c1ccccc1C2=O (stereo not given)
 : 15.8µM*	u	-0.2%	u	-3.8%	u	1.0%	0.9%
(3) Cc1csc(-c2cnn(-c3ccccc3)c2NC(=O)c2ccccc2)n1
 : -3.0%	-13.9%	-0.6%	4.4%	-3.5%	20.4%	-13.8%	0.0%
(4) O=C(Cn1cnc2c(cnn2-c2ccccc2)c1=O)Nc1ccc(S(=O)(=O)N2CCOCC2)cc1
 : u	27.2%	-4.3%	2.8%	22.0%	-12.7%	x	-26.2%
(5) O=C(Nc1nc2n(n1)C(c1ccc(F)cc1)C=C(c1ccc(Cl)cc1)N2)c1ccc([N+](=O)[O-])cc1 (stereo not given)
 : -4.5%	x	-4.0%	u	x	2.82µM*	x	-12.7%
(6) COc1ccc(C(=O)NC2CC3CCCC(C2)N3CC(C)C)cc1OC (stereo not given)
 : -0.1%	-0.5%	1.0%	0.4%	-1.8%	-1.7%	-8.8%	2.1%
(7) CC(=O)Nc1ccc(C(=O)COC(=O)C2CC2C)c(F)c1 (stereo not given)
 : x	x	x	-8.7%	0.6%	u	-10.4%	-16.0%
(8) Cc1nc2c(Cl)cccc2[nH]1
 : 5.5%	1.9%	1.4%	-2.7%	-14.0%	-4.0%	0.0%	-17.2%
(9) CCN1C(C(=O)c2ccccc2)=C(OC(=O)C(C)C)c2ccccc2S1(=O)=O
 : 17.6%	x	-8.5%	u	x	u	x	-20.5%
(10) CN(C)CCNC(=O)c1ccc2c(c1)N(Cc1ccccc1)C(=O)c1ccccc1S2(=O)=O
 : 6.2%	x	0.0%	-6.5%[46.1 µM]	x	u	x	-1.7%
(11) CC(=O)c1ccc(NC(=O)c2noc3c2CCCCC3)cc1
 : -15.8%	-7.8%	-2.3%	x	-5.4%	-3.2%	7.3%	45.8%[activator]
(12) COc1ccc(C(=O)N(C)C2CCCCC2)cc1OC1CCN(C(C)C)CC1
 : x	6.1%	x	19.3%	1.4%	-0.7%	0.9%	-14.7%
(13) C=CCn1c2ccccc2c2nnc(SCCN3CCOCC3)nc21
 : x	1.4%	x	x	0.8%	x	-4.3%	-4.4%
(14) COC(=O)C(CCSC)NC(=O)/C=C/c1ccc(OC)cc1 (stereo not given)
 : x	0.0%	x	x	-2.7%	x	-2.9%	16.1%
(15) Cc1ccc2nc(NC(=O)c3nc(SCc4ccccc4F)ncc3Cl)sc2c1
 : 16.1%	x	-1.3%	1.0%[46.1 µM]	x	-27.4%[46.1 µM]	x	-21.4%
(16) COc1ccc(C(=O)NC(=S)Nc2ccccc2N2CCCCC2)cc1[N+](=O)[O-]
 : u	13.4%	-4.5%	u	4.5%	u	0.0%	u
(17) O=[N+]([O-])c1cccc(S(=O)(=O)Nc2ccc(Cc3ccncc3)cc2)c1
 : x	-2.8%	x	x	2.3%	x	-6.6%	-29.4%
(18) CC1Cc2ccccc2N1C(=O)c1ccc2nccnc2c1 (stereo not given)
 : x	1.5%	x	-9.6%[46.1 µM]	-6.7%	9.5%[46.1 µM]	1.1%	-23.7%
(19) O=C(NC(=S)Nc1ccc(Cl)cc1Cl)C1CC1
 : x	-10.3%	x	-0.1%[46.1 µM]	-3.6%	-9.4%[46.1 µM]	-22.0%	28.0%
(20) CC(C)c1ccc(OCC(=O)NC(Cc2c[nH]c3ccccc23)C(=O)O)cc1 (stereo not given)
 : u	x	-15.9%	-0.6%	2.5%	-1.4%&1.5%[46.1 µM]	2.6%	4.1%&8.4%
(21) Cn1nnnc1SCc1ccc(C(=O)Nc2ccc(Br)cc2)cc1
 : -8.1%	18.3%	-0.9%	u	4.2%	14.2%	-2.0%	12.5%
(22) CCOC(=O)C(NC(=O)CC)(Nc1ccc(S(=O)(=O)Nc2ncccn2)cc1)C(F)(F)F (stereo not given)
 : 6.3%	-8.3%	2.8%	-25.3%	3.8%	u	-5.2%	12.3%
(23) COc1ccc(C2CC(=O)Nc3c2c(C)nn3-c2nncc(-c3ccccc3)n2)c(OC)c1OC (stereo not given)
 : -5.6%	x	-1.9%	4.5%[46.1 µM]	x	-0.5%[46.1 µM]	x	u
(24) O=C(NCc1ccccc1)c1ccc2c(=O)n(CC3CCCO3)c(=S)[nH]c2c1 (stereo not given)
 : 1.1%	12.7%	0.9%	-16.9%	-4.4%	-0.9%	12.8%	6.8%
(25) O=C(CSCc1ccccc1)N=Nc1c(O)[nH]c2ccccc12
 : 1.2%	-3.0%	-2.3%	u	-18.3%	u	8.0%	11.0%
(26) Cc1ccc(S(=O)(=O)NN)c(C)c1N1CCCC1=O
 : x	-16.6%	x	x	1.3%	x	0.5%	-1.0%
(27) CC(C)(C)C(=O)Nc1ccccc1C(=O)N1CCCC1
 : 6.2%	5.1%	-0.5%	11.1%	-0.6%	7.9%	-1.0%	-3.3%
(28) COc1ccc(CCNC(=O)C(=O)NCCCN2CCOCC2)cc1
 : x	1.1%	x	x	-0.5%	x	0.9%	3.5%
(29) Nc1nc(SCC(=O)N2N=C(c3ccc(Cl)cc3)CC2c2ccco2)n[nH]1 (stereo not given)
 : x	1.9%	x	x	-0.1%	x	12.4%	4.1%
(30) Cc1ccc(S(=O)(=O)Oc2ccc(/C=N/N=C3/NC(=O)C(CC(=O)O)S3)cc2)cc1[N+](=O)[O-] (stereo not given)
 : x	u	x	-1.5%	-8.3%	27.9%	-14.9%	-11.9%
(31) Cn1cc(CN(Cc2ccccn2)C[C@@H]2CCC(=O)N2)c(-c2ccccc2F)n1
 : x	1.6%	x	x	-0.8%	x	2.1%	-15.5%
(32) Cc1cccc(C)c1NC(=O)/C(C#N)=C/c1cccs1
 : -13.5%	-23.3%	-1.7%	-26.7%	-2.9%	-7.2%[46.1 µM]	-35.8%	-12.1%
(33) CCc1ccccc1NC(=O)C1CCCN(c2ncnc3onc(C)c23)C1 (stereo not given)
 : -7.2%	x	-1.0%	3.0%[46.1 µM]	x	x	x	u
(34) CCN(c1ccccc1)S(=O)(=O)c1ccc(Cl)c(NC(=O)CNC(C)c2ccccc2)c1 (stereo not given)
 : x	x	x	u	-0.1%	u	-16.8%	-28.5%
(35) CCCn1c(SCC(=O)NC2CCCCC2)nnc1-c1ccco1
 : x	6.5%	x	-13.2%	7.8%	11.7%[46.1 µM]	5.9%	-3.5%
(36) CCOC(=O)C1CN(C(C)(C)C)C(=O)C1=O (stereo not given)
 : 5.7%	11.5%	-0.7%	1.4%	-20.6%	u	4.0%	-19.7%
(37) C=CCc1c(C)c(C#N)c2nc3ccccc3n2c1NCCN(C)C
 : -14.4%	-122.6%	-0.8%	2.8%	-17.1%	-28.7%	22.1%	3.5%
(38) O=c1c2cc(N3CCOCC3)ccc2[nH]c(=S)n1CCCN1CCN(c2ccccc2F)CC1
 : -6.0%	-8.4%	-5.0%	x	7.5%	x	x	x
(39) O=C(COc1ccc(C(=O)c2ccccc2)cc1)NCC1CCCCC1
 : 1.0%	-6.8%	-7.2%	-21.2%	12.7%	-9.3%	u	-19.0%
(40) Nc1c(C(=O)NCc2ccccc2)nnn1Cc1ccccc1
 : -13.3%	-15.3%	1.9%	x	-2.0%	x	0.2%	12.3%
(41) CNS(=O)(=O)c1ccc(NC(=O)c2ccccn2)cc1
 : 7.8%	-4.5%	0.0%	u	15.9%	u	7.2%	40.7%[activator]
(42) COc1ccc(N(C(C)C(=O)N/N=C/c2ccc(OC)c(OC)c2)S(C)(=O)=O)cc1 (stereo not given)
 : x	x	x	17.0%	-0.1%	3.6%	-7.7%	-7.9%
(43) Cc1cc(Cl)c(S(=O)(=O)N2CCN(c3ccccn3)CC2)cc1OCC(N)=O
 : x	-4.6%	x	26.1%[46.1 µM]	0.4%	-4.5%[46.1 µM]	2.0%	-12.1%
(44) Cc1ccc(S(=O)(=O)NCCSCc2ccco2)cc1
 : x	-0.2%	x	-1.0%	-0.3%	-1.3%[46.1 µM]	4.9%	33.2%[activator]
(45) Cc1ccc(C(C(=O)NC(C)(C)C)N(CC2CCCO2)C(=O)Cn2nnc(-c3ccc(C)o3)n2)cc1 (stereo not given)
 : u	2.5%	1.9%	-13.1%	8.2%	-26.7%	-5.4%	11.7%
(46) CC(=O)NC(NC(=S)Nc1ccc(N=Nc2ccccc2)cc1)C(Cl)(Cl)Cl (stereo not given)
 : -10.5%	3.2%	-2.8%	u	-2.6%	u	-0.9%	u
(47) Fc1ccc2c(c1)nnn2C1CCN(Cc2ccccc2)CC1
 : -1.3%	-5.4%	-0.2%	3.9%	0.8%	-4.5%[46.1 µM]	-25.4%	-19.8%

Single records, from the list above. Screens in order: Cruzain noTriton | NS1 inh | Cruzain inh Det | LASV entry inh | SARS PLP yeast | Marburg entry inh | RE007 growth inh | StopGo reporter
O=C(Cn1cnc2c(cnn2-c2ccccc2)c1=O)Nc1ccc(S(=O)(=O)N2CCOCC2)cc1 as listed: u | 27.2% | -4.3% | 2.8% | 22.0% | -12.7% | x | -26.2%
CCOC(=O)C(NC(=O)CC)(Nc1ccc(S(=O)(=O)Nc2ncccn2)cc1)C(F)(F)F (stereo not given) as listed: 6.3% | -8.3% | 2.8% | -25.3% | 3.8% | u | -5.2% | 12.3%

No enrichment for hits; about 4.7% have a hit in one of these screens.
